Screening results (PubChem)
NPYLR7 ag = mosquito NPYLR7 agonism; 0.15% of 270,000 active; HEK293T NPYLR7/Galpha15, GCaMP6s calcium fluorescence; activation, % at 10 µM; AID 1259423; in the data active = activation above about 40%;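 note: 0% = vehicle and 100% = reference agonist at the receptor; some compounds past the cut are filed as inactive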
NPYLR7 ag max-min = second read-out of NPYLR7 ag, no call of its own (marks repeat the call); activation, %; measured here: Max-Min RFU normalised activation; some inactives read as strong as hits;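 span of the calcium signal over five minutes; 0% = vehicle and 100% = native peptide agonist; compound fluorescence can raise it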
Numbers without * were called inactive; & = joins results of further samples. Some of the compounds tested; rates above refer to the full screens.

1: Cc1ccc(Nc2nc(NCCN(C)C)nc3nccnc23)cc1
2: Cn1ccc(NC(=O)C2CCCN2C(=O)c2cc(Cl)ccc2Cl)n1 (configuration not stated)
3: Cc1c(C(=O)NCc2ccc(S(N)(=O)=O)cc2)ncn1Cc1ccc(Cl)cc1
4: Cc1csc2nc(O)c(C(=O)NC(C)C)c(=O)n12
5: CCC(CNC1CCN(C(=O)C(C)C)CC1)N1CCOCC1 (configuration not stated)
6: CCOC(=O)C1CCN(C(=O)CCc2c(C)nn(-c3nc(C)cc(=O)[nH]3)c2C)CC1
7: CCCN1CCC(=NN=C(N)N)CC1
8: COc1cccc(Cc2c(C)nc(C)nc2N2CCN(C(=O)c3cccc(Cl)c3)CC2)c1
assay / compound	1	2	3	4	5	6	7	8
NPYLR7 ag	1	1	8	-4	27	4	2	18
NPYLR7 ag max-min	5	0	9	-4	12	2	-1	21

9: Cc1cc(NC(=O)COc2ccc(Br)cc2)ccn1
10: COCc1nc2cnc(Nc3cc(OC)c(OC)c(OC)c3)cc2n1C
11: COc1cc2c(cc1OC)CN(C1CCCN(C(=O)CSc3ccccc3)C1)CC2 (configuration not stated)
12: CNS(=O)(=O)c1ccc2c(c1)N(C(=O)c1cccc(C#N)c1)CC2
13: CCOc1ccc(C2NC(=O)NC3=C2C(=O)N(CCC2=CCCCC2)C3)cc1 (configuration not stated)
14: Cc1cc(N2CC[C@@H](N3CCOCC3)[C@H](O)C2)nc(-c2ccccc2)n1
15: CCCCN(CC(=O)N1c2ccccc2-n2cccc2C1c1ccc(Cl)cc1)C(=O)c1ccc(C)c([N+](=O)[O-])c1 (configuration not stated)
16: COc1ccc(OC)c(-c2cccc(-c3ccc(NC(=O)c4ccc(N(C)C)cc4)cc3)n2)c1
assay / compound	9	10	11	12	13	14	15	16
NPYLR7 ag	7&12	2	18&-4	-5	6	7	16	-3
NPYLR7 ag max-min	3&10	1	4&-7	-4	5	3	21	-1

17: CCCCCn1c(N2CCOCC2)nc2c1c(=O)[nH]c(=O)n2C
18: O=C(CSc1nc(=O)n(Cc2ccccn2)c2c1CCC2)NC1CCCC1
19: COc1cc(=O)n(-c2ccc(C)cc2)nc1C(=O)Nc1ccccc1SC
20: Cc1cc(NC(=O)CNc2ccc3c(c2)OC(F)(F)O3)on1
21: Fc1ccc(Cn2nnc3c(SCc4ccccc4)ncnc32)cc1
22: Cc1nc2cc(N3C(=O)[C@@H]4C[C@H]3CN4Cc3ccsc3)ccc2s1
23: O=c1c2c(-c3ccccc3)csc2ncn1CC(O)COc1c(Cl)cccc1Cl (configuration not stated)
24: CCC(C(=O)NCCOC)n1c(=O)n(-c2ccccc2Cl)c(=O)c2ccc(Cl)cc21 (configuration not stated)
assay / compound	17	18	19	20	21	22	23	24
NPYLR7 ag	4	-5	9	0	14	17	-1	20
NPYLR7 ag max-min	-2	-8	-1	0	16	8	20	20

25: COCC(=O)N1CCN(c2cc(Cl)ccc2C)C(=O)C1C (configuration not stated)
26: CN1CCN(C(=O)c2cccc(NS(=O)(=O)NCc3ccccc3)c2)CC1
27: CN1C(=O)NC(c2cccs2)C2=C1CN(CCc1ccccc1)C2=O (configuration not stated)
28: O=C(Cn1nc2ccccn2c1=O)OCc1csc(-c2ccsc2)n1
29: CCCNC(=O)Cn1cc(OC)c(=O)cc1CN1CCCCC1
30: CCCCSc1nnc2c(n1)OC(c1c(Cl)cccc1Cl)Nc1ccccc1-2 (configuration not stated)
31: CC1CCC(C(=O)NCC2CCCN(Cc3ccco3)C2)CC1 (configuration not stated)
32: COc1ccc(C2(C(=O)N3CCCC(O)(CO)CC3)CCCC2)cc1 (configuration not stated)
assay / compound	25	26	27	28	29	30	31	32
NPYLR7 ag	-12	6	-3	1	-2	7	24	3
NPYLR7 ag max-min	-9	6	2	-2	-3	5	9	3

A portion of the results above:
29: CCCNC(=O)Cn1cc(OC)c(=O)cc1CN1CCCCC1
30: CCCCSc1nnc2c(n1)OC(c1c(Cl)cccc1Cl)Nc1ccccc1-2 (configuration not stated)
assay / compound	29	30
NPYLR7 ag	-2	7
NPYLR7 ag max-min	-3	5

(more compounds)
33: O=C(NS(=O)(=O)c1ccncc1)C1CC1(Cl)Cl (configuration not stated)
34: O=C(C1CC1)N(Cc1cccnc1)Cc1nccn1Cc1ccc(F)cc1
35: CCc1ccc(Nc2nnc(SCC(N)=O)s2)cc1
36: CCCn1cc(C(=O)N2CCCN(C)C3(CCN(C)CC3)C2)c(C)n1
37: CC(NC(=O)c1cccn1C)c1ccccc1OC(F)F (configuration not stated)
38: COc1cccc(C(=O)N2CCN(c3cc(Cl)nc(SCC(=O)NCc4ccccn4)n3)CC2C)c1 (configuration not stated)
39: CC(=O)c1c(N)nc(C)nc1-c1ccccc1
40: FC(F)(F)c1cc(-c2ccco2)nc(-n2cc(Br)cn2)n1
assay / compound	33	34	35	36	37	38	39	40
NPYLR7 ag	0	19	-1	5	0	-4	-12	16
NPYLR7 ag max-min	1	22	0	3	-1	2	-20	7

(further entries)
Order of values: NPYLR7 ag, NPYLR7 ag max-min
#41 CCOCCS(=O)(=O)Cc1sc(-c2ccccc2)nc1C
 : -7, -8
#42 CCCCCCCCCCCCCC(=O)Nc1ccc(N2CCCC2)c(C(=O)NCc2ccc(F)cc2)c1
 : -3, 7
#43 Fc1cccc(CN2CCN(Cc3cn[nH]c3C3CCCCC3)CC2)c1
 : -1, -5
#44 CN(Cc1ccccc1)c1ncccc1CNCc1cc2c(cc1Cl)OCO2
 : 5, 4
#45 CCCCc1nc(N2CCCN(C(=O)c3ccccc3F)CC2)c2c(C)nn(-c3ccccc3)c2n1
 : 9, 14
#46 COC(=O)C1=C(C)NC2=C(C(=O)CCC2)C1c1cc([N+](=O)[O-])c(C)s1 (configuration not stated)
 : 5, 3
#47 Cc1nc2ccccn2c(=O)c1NC(=O)Cc1ccc(-c2ccccc2)cc1
 : 4, 1
#48 COc1cccc(C2NC(=O)N(C)C3=C2C(=O)N(CC(=O)N2CCN(c4cccc(C(F)(F)F)c4)CC2)C3)c1OC (configuration not stated)
 : 0, 16
#49 Cc1cccc(COc2ccc3c(C4CC4)noc3n2)c1
 : 3, -1
#50 COc1ccc(Cl)c2sc(N(CCN3CCOCC3)C(=O)c3ccno3)nc12
 : 1, 22
#51 O=C(NCCn1ncc2c(=O)n(Cc3cccc(Cl)c3)cnc21)c1ccco1
 : -5, -10
#52 Cc1ccccc1-n1nc(C)c(CNC(=O)CCCNC(=O)OCc2ccccc2)c1C
 : 20, 4
#53 COc1cc(Cl)cc(CN2CCCC(C(=O)N3CCCC3)C2)c1OC (configuration not stated)
 : 5, 1
#54 COc1ccc(NC(=O)NC(Cc2ccccc2)c2nnc(SCc3ccccc3)n2-c2ccc(C)cc2)c(OC)c1 (configuration not stated)
 : -9, -8
#55 O=C(NCC1CCN(Cc2cccc(O)c2)C1)C1CCCCC1 (configuration not stated)
 : 21, 5
#56 Cc1ccc(OCC2CCCN(Cc3nc(C)ccc3O)C2)cc1 (configuration not stated)
 : 0, 14
#57 CCN(CC)C(=O)Oc1ccc2c(ccn2Cc2ccccc2Cl)c1NC(=O)CCCC(=O)OC
 : 0, -3
#58 COCCN(Cc1cccc(OS(=O)(=O)c2ccc(F)cc2)c1)C(=O)c1ccc(Cl)c(Cl)c1
 : -6, -3
#59 O=S(=O)(c1ccc(=S)[nH]c1)N1CCOCC1
 : 18, 7
#60 O=C1C2CCCN2C(c2ccc(F)cc2)N1c1nccs1 (configuration not stated)
 : 7, 4
#61 CCOC(=O)Cn1c(=NC(=O)c2cc(C)nn2CC)sc2cc(S(N)(=O)=O)ccc21
 : 4, 10
#62 Cc1ccccc1C(NC(=O)Cc1nc2ccccc2[nH]1)c1ccncc1 (configuration not stated)
 : 5, 3
#63 CN(Cc1ccon1)Cc1cn(C)nc1-c1ccc(C2CCCCC2)cc1
 : 5, -2
#64 Cc1ccc(C(=O)NCC(c2ccccc2C)N(C)C)c(F)c1 (configuration not stated)
 : 6, 0
#65 CC1Sc2ccccc2N(S(=O)(=O)c2c[nH]c3ncccc23)C1C (configuration not stated)
 : 8, 6
#66 CC(=O)NC1=NC(=O)/C(=C/c2cc3c(cc2Cl)OCO3)S1
 : -10, -21
#67 O=C(Nc1ccc(Oc2ccc(Cl)c3cccnc23)c(Cl)c1)c1ccc([N+](=O)[O-])cc1
 : 4, 6
#68 CCN(CC)Cc1cnc2c(C(=O)Nc3ccc(-n4ccnc4)cc3)cnn2c1
 : -4, 0
#69 CN(Cc1ccccc1)c1ccccc1NC(=O)NCCO
 : 7, 7
#70 COCC1=C(C(=O)OC)C(c2ccccc2F)C(C#N)C(=N)O1 (configuration not stated)
 : -3, -8
#71 CC(C)CN(CC(C)C)C(=O)c1c(NC(=O)c2ccccc2)sc2c1CCCC2
 : 1, 5
#72 CC(C)C1CN(Cc2noc(C(C)(C)C)n2)CCC(=O)N1CC1CC1 (configuration not stated)
 : -3, 9
#73 COc1ccc(Cc2nc(-c3ccc(Br)cc3)no2)cc1
 : 7, 7
#74 Cc1nc2cc3c(cc2[nH]1)OCCO3
 : 9, 10
#75 COC(=O)C(CN1CCN(C)CC1)C(O)c1ccncc1 (configuration not stated)
 : 2, 0
#76 COCCN(CCOC)Cc1c(O)cc(C)c2c1O/C(=C\c1cc3ccccc3o1)C2=O
 : 37, 34
#77 CCN(CC)S(=O)(=O)c1ccc(OC)c(N2CCN(C(=O)C(C)Oc3ccccc3)CC2)c1 (configuration not stated)
 : 2, -1
#78 Cc1ccc(-c2nc(OCC(C)C)nn2-c2ccc(NC(=O)c3ccc(Cl)cc3)cc2)cc1
 : 23, 16
#79 Cc1ccc(Oc2ncccc2CNC(=O)c2ccc(=O)n(C)n2)c(F)c1F
 : 1, 0
#80 COc1ccc(Br)cc1S(=O)(=O)Nc1cc(F)ccc1F
 : 8, 11
#81 Cc1ccc2nc(C3CCN(C(=O)C4CCC(=O)N(C5CC5)C4)CC3)[nH]c2c1 (configuration not stated)
 : 6, 6
#82 O=C(NNC(=O)c1cc2cc(Br)ccc2oc1=O)c1ccc(COc2ccccc2)cc1
 : -4, -10
#83 CC1Sc2ccc(-c3ccco3)cc2N(Cc2ccccc2Cl)C1=O (configuration not stated)
 : 14, 8
#84 Cc1ccccc1-c1c(-c2ccc([N+](=O)[O-])cc2)oc2cc(O)ccc2c1=O
 : -6, -6
#85 CC(C)CN(C1CCS(=O)(=O)C1)S(=O)(=O)c1ccc(Cl)cc1 (configuration not stated)
 : -6, -4
#86 O=C(CCC(=O)N1CCCC(CN2CCOCC2)C1)c1ccccc1 (configuration not stated)
 : 5, -19
#87 Cn1nnc2c(=O)n(Cc3ccc(F)cc3)cnc21
 : -1, 2
#88 COc1ccccc1N1CCN(C2CCCN(C3CCN(C(C)C)CC3)C2)CC1 (configuration not stated)
 : -2, -4
#89 Cc1cc(C(=O)Cn2ncc(Cl)c(Cl)c2=O)c(C)n1CC(F)(F)F
 : -1, -4
#90 COc1ccc(/C=C/C(=O)NC2CCCN(CCc3ccccc3)C2)cc1OC (configuration not stated)
 : -1, -4
#91 COC(=O)c1c(C)[nH]c(C(=O)OCc2csc(NC(C)=O)n2)c1C
 : 2, 0
#92 Cc1noc(C)c1CN1CCCC(c2nn(C)c(=O)n2-c2ccccc2)C1 (configuration not stated)
 : -2, -5
#93 Cc1c(C(=O)Nc2nccs2)nnn1-c1ccc(C(C)C)cc1
 : -4, -5

Arranged by molecular weight (rising): 20 of the compounds above.
Order of values: NPYLR7 ag, NPYLR7 ag max-min
#74 Cc1nc2cc3c(cc2[nH]1)OCCO3
 : 9, 10
#87 Cn1nnc2c(=O)n(Cc3ccc(F)cc3)cnc21
 : -1, 2
#75 COC(=O)C(CN1CCN(C)CC1)C(O)c1ccncc1 (configuration not stated)
 : 2, 0
#93 Cc1c(C(=O)Nc2nccs2)nnn1-c1ccc(C(C)C)cc1
 : -4, -5
#86 O=C(CCC(=O)N1CCCC(CN2CCOCC2)C1)c1ccccc1 (configuration not stated)
 : 5, -19
#73 COc1ccc(Cc2nc(-c3ccc(Br)cc3)no2)cc1
 : 7, 7
#72 CC(C)C1CN(Cc2noc(C(C)(C)C)n2)CCC(=O)N1CC1CC1 (configuration not stated)
 : -3, 9
#85 CC(C)CN(C1CCS(=O)(=O)C1)S(=O)(=O)c1ccc(Cl)cc1 (configuration not stated)
 : -6, -4
#83 CC1Sc2ccc(-c3ccco3)cc2N(Cc2ccccc2Cl)C1=O (configuration not stated)
 : 14, 8
#84 Cc1ccccc1-c1c(-c2ccc([N+](=O)[O-])cc2)oc2cc(O)ccc2c1=O
 : -6, -6
#80 COc1ccc(Br)cc1S(=O)(=O)Nc1cc(F)ccc1F
 : 8, 11
#81 Cc1ccc2nc(C3CCN(C(=O)C4CCC(=O)N(C5CC5)C4)CC3)[nH]c2c1 (configuration not stated)
 : 6, 6
#89 Cc1cc(C(=O)Cn2ncc(Cl)c(Cl)c2=O)c(C)n1CC(F)(F)F
 : -1, -4
#79 Cc1ccc(Oc2ncccc2CNC(=O)c2ccc(=O)n(C)n2)c(F)c1F
 : 1, 0
#90 COc1ccc(/C=C/C(=O)NC2CCCN(CCc3ccccc3)C2)cc1OC (configuration not stated)
 : -1, -4
#88 COc1ccccc1N1CCN(C2CCCN(C3CCN(C(C)C)CC3)C2)CC1 (configuration not stated)
 : -2, -4
#71 CC(C)CN(CC(C)C)C(=O)c1c(NC(=O)c2ccccc2)sc2c1CCCC2
 : 1, 5
#76 COCCN(CCOC)Cc1c(O)cc(C)c2c1O/C(=C\c1cc3ccccc3o1)C2=O
 : 37, 34
#78 Cc1ccc(-c2nc(OCC(C)C)nn2-c2ccc(NC(=O)c3ccc(Cl)cc3)cc2)cc1
 : 23, 16
#82 O=C(NNC(=O)c1cc2cc(Br)ccc2oc1=O)c1ccc(COc2ccccc2)cc1
 : -4, -10
